CDC25B-CDK2 inh – human CDC25B-CDK2/CyclinA binding inhibition; z-score (test concentration not listed); HTRF CDC25B-CDK2/CyclinA binding, anti-His/anti-Flag; stronger effect = higher value; actives 0.72% (n = 94,000); P30305+P24941; AID 1259370;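 also: score is relative to mean and SD of negative controls; strong numbers were not always called active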
HIV TAR-Tat – HIV-1 TAR-Tat binding disruption | HIV-1 TAR RNA, Tat peptide displacement FRET; stronger effect = higher value | actives 0.6% (n = 100,000) | z-score (concentration not given with the values);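 also: score is relative to mean and SD of negative controls; some compounds called inactive have numbers as strong as hits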
* = called active by the depositor; · = no result given.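 The calls were made as follows: active = z-score from 3 up in half or more of its runs; inactive = the rest.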

SMILES	CDC25B-CDK2 inh	HIV TAR-Tat
CCc1nn(CCCC(=O)NCc2ccc3c(c2)OCO3)c(=O)c2cc3oc(C)cc3n12	-1	3.5
CN(C)CCN(C(=O)CCc1ccccc1)c1nc2c(F)cc(F)cc2s1	·	-0.35
Cn1nc(C(=O)Nc2cc(-c3cccc(F)c3)no2)c2c1-c1ccccc1OC2	-0.27	0.39
Cc1cccc2c(=O)c(NC(=O)NCC3CCCO3)c[nH]c12 (configuration not stated)	-1.9	2.2
COc1cc2c(cc1OC)C1(CCCC1)CNC2CO (configuration not stated)	-0.49	·
O=C(OCCCN=C1NS(=O)(=O)c2ccccc21)c1ccccc1Br	-3	·
Cc1ccc2cc(-c3noc(CCC(=O)N4CCOCC4)n3)c(=O)[nH]c2c1	0.06	-1.3
O=C(NCCCn1ccnc1)c1c(O)nc2ccccn2c1=O	-1.1	0.6
O=C(NC1CCCC1)c1[nH]nc2c1COc1ccccc1-2	·	-0.56
Cn1c(=O)oc2cc(S(=O)(=O)NCCC(=O)N3CCCCCC3)ccc21	-0.78	·
CN1C(=O)Cc2cc(S(=O)(=O)CCC(=O)Nc3ccc(F)c(Cl)c3)ccc21	·	0.36
CC(C)Sc1ncc(Cl)c(C(=O)N(Cc2ccc(C(C)C)cc2)C2CCS(=O)(=O)C2)n1 (configuration not stated)	-0.94	2.1
COc1cc(OC)c(Nc2nc3ccccc3c3nncn23)cc1Cl	-1.5	-0.8
CC(C)NC(=O)Cn1c(=O)c2cccn2c2cccnc21	·	0.04
CCOC(=O)c1nn(-c2ccccc2)c(=O)cc1N1CCN(c2ccc(F)c(Cl)c2)CC1	·	0.95
CCc1ccc(CN(C(=O)c2nc(S(=O)(=O)CC)ncc2Cl)C2CCS(=O)(=O)C2)cc1 (configuration not stated)	-0.83	1.5
Cn1nc(C(=O)NCCc2ccsc2)c2c1-c1ccsc1CC2	·	0.92
O=C(CCCC1=NS(=O)(=O)c2ccccc2N1)NCc1cccs1	·	-1.9
O=c1oc2cc(OCCO)ccc2c2c1CCCC2	-0.12	·
CCOC(=O)C(C)Sc1ccc2nnc(-c3cccc(F)c3)n2n1 (configuration not stated)	-0.16	·
Cc1cc(C)n2ncc(C(=O)NCCCN3CCCC3=O)c2n1	·	0.95
CNC(=O)c1c(-c2ccccc2)nc2n1CCS2(=O)=O	-2.4	1.1
O=C(c1cnn(-c2ccc(F)cc2)c1-n1cccc1)N1CCCC(C(=O)N2CCc3ccccc32)C1 (configuration not stated)	·	1.1
O=C(NCC1OCCCN1S(=O)(=O)c1ccc2c(c1)OCCO2)C(=O)NC1CCCCC1 (configuration not stated)	-0.98	·
CN(CC(=O)NCCC1=CCCCC1)c1nnc(N2CCCCC2=O)s1	·	0.98

Compound profiles, as listed above. Screens in order: CDC25B-CDK2 inh	HIV TAR-Tat
O=c1oc2cc(OCCO)ccc2c2c1CCCC2 is listed with -0.12	·
CCOC(=O)C(C)Sc1ccc2nnc(-c3cccc(F)c3)n2n1 (configuration not stated) is listed with -0.16	·
Cn1nc(C(=O)NCCc2ccsc2)c2c1-c1ccsc1CC2 is listed with ·	0.92
CCOC(=O)c1nn(-c2ccccc2)c(=O)cc1N1CCN(c2ccc(F)c(Cl)c2)CC1 is listed with ·	0.95
CC(C)Sc1ncc(Cl)c(C(=O)N(Cc2ccc(C(C)C)cc2)C2CCS(=O)(=O)C2)n1 (configuration not stated) is listed with -0.94	2.1

Other results follow:
SMILES	CDC25B-CDK2 inh	HIV TAR-Tat
CCOc1cc(/C=C2\N=C(c3cccc(I)c3)OC2=O)ccc1OC	-1.9	·
Cc1ccc(/C=C/c2cc(=O)n3ccsc3n2)cc1	0.15	-0.64
CCN1CCN(c2c(S(=O)(=O)c3ccc(OC)cc3)cnc3ccc(OC)cc23)CC1	-0.75	0.54
Cc1ccc(C)n1N1C(=O)c2ccccc2C1=O	-2.2	·
CC12CN3CC(C)(CN(C1)C3c1ccc(Cl)cc1)C2 (configuration not stated)	-1.2	1.9
Fc1ccc(-c2nnn(Cc3cccc(F)c3)n2)cc1	-3.5	1.8
COc1cccc(OCc2nc(-c3ccccc3)no2)c1	1	-0.05
O=C(O)c1ccccc1Nc1ccccc1	-1.4	·
CSC(=S)Nc1ccc(F)cc1F	-1.1	·
CC(C)(C#Cc1cncnc1)OC(=O)Nc1ccc(Cl)cc1	-1.9	·
COc1ccc2nc3sc(C(=O)N4CCN(c5ccccn5)CC4)cc3cc2c1	-0.55	·
COc1cccc(C2Oc3ccccc3C3CC(c4cccs4)=NN32)c1OC (configuration not stated)	-0.08	-5
O=C(CN1c2ccccc2S(=O)(=O)c2ccccc21)NCc1ccccn1	·	-0.94
CCc1ccc(NS(=O)(=O)c2cc(-c3ccc(=O)[nH]n3)ccc2C)cc1	0.69	0.07
CC(C)C(NS(=O)(=O)c1ccc2c(c1)CCCC(=O)N2)C(=O)N1CCCCC1 (configuration not stated)	·	0.62
CC1=C(C(=O)OC2CCCCC2)C(c2ccccc2)NC(=O)N1 (configuration not stated)	-0.54	·
Cc1cc(C)c2c(n1)SCC(=O)N2CC(=O)NC1CC1	-0.28	0.02
Cc1nc(Nc2ccc(N3CCOCC3)cc2)cc(-c2ccccc2)n1	-0.28	-0.23
CC1Sc2ccc(S(=O)(=O)N3CCN(C4CCCCC4)CC3)cc2NC1=O (configuration not stated)	·	3.4
Cn1c(=O)n(-c2cccc(Cl)c2)c(=O)c2sc3ccccc3c21	-3.2	2.2
O=C(NCCN1CCCCC1)NC1COc2ccccc2C1 (configuration not stated)	·	0.21
O=C(Cn1nnc2sc3c(c2c1=O)CCCC3)Nc1ccccc1	-0.37	2.9
CC1CCc2c(sc3[nH]c(=S)n(-c4ccccc4)c(=O)c23)C1 (configuration not stated)	-0.88	·
CCN(Cc1ccccc1)c1c(-c2cc(C)c(C)cc2C)c(=O)c1=O	·	-0.61
CS(=O)(=O)n1nccc1/C=C/c1cccs1	-2.2	·
O=S(=O)(NCc1cn2ccccc2n1)c1ccc(Cl)cc1	-0.56	·
O=C(Cn1ncc2c([nH]c3ccccc32)c1=O)N1CCCCC1	·	0.8
CN(Cc1ccco1)C(=O)CCS(=O)(=O)c1cc2c(cc1Cl)NC(=O)CO2	·	0.82
COc1cccc(NS(=O)(=O)c2ccc(-c3ccc(=O)[nH]n3)o2)c1	·	3.6
COC(=O)c1ccc(CSc2nncn2C)cc1	-0.97	-0.26
Cc1nnc(N2C(=O)c3oc4ccccc4c(=O)c3C2c2cccc(Oc3ccccc3)c2)s1 (configuration not stated)	1.3	1.8
COC(=O)Cn1cnc2onc(-c3ccc(Cl)cc3)c2c1=O	-0.94	-0.9
O=C(c1ccccc1Br)N(Cc1cccs1)c1ccccn1	-1.6	-0.32
CCSc1ccc(C(=O)Nc2sc3c(c2C(N)=O)CCC3)cc1	·	0.08
CNc1nc(Nc2ccc(C)c(Cl)c2)c2cnn(C)c2n1	·	2.5
CCn1nc(C)c(CNC(=O)Nc2cccc(Cl)c2)c1C	·	0.29
CCOC(=O)CNC(=O)COc1ccccc1	-1.2	·
COc1cc(C)c(S(=O)(=O)N2CCN(c3cc(N(C)C)nc(C)n3)CC2)cc1C	-1.7	1.8
CCc1nnc2c3ccccc3nc(NCCc3ccc(Cl)cc3)n12	·	0.9
Cn1c(=O)c2c(ncn2CC(O)CN2CCOCC2)n(C)c1=O (configuration not stated)	0.21	0.36
COc1ccc(C2Nc3ncnn3C(c3ccccc3)C2N)cc1 (configuration not stated)	-1.2	-0.67
COC(=O)c1nc2n(n1)C(c1ccc(C)cc1)C1=C(CCCC1=O)N2 (configuration not stated)	0.34	·
O=C(CSc1nnc2n1CCCN2)c1cccs1	-1.6	·
CCOC(=O)N1CCN(C(=O)C2CCCN2S(=O)(=O)c2cccc3nsnc23)CC1 (configuration not stated)	-0.49	-0.3
CCCCNC(=O)Nc1nnc(C(C)(C)C)s1	-0.22	·
COc1cccc(Nc2ncnc3sc(C)c(S(=O)(=O)N4CCC(C)CC4)c23)c1	0.17	·
CCOC(=O)C1=C(C)NC2=C(C(=O)C(C(=O)OC)C(C)C2)C1c1ccccc1F (configuration not stated)	-1.7	0.08
CSc1ccc(CNC(=O)c2ccc3c(c2)nc2n3CCOC2)cc1	·	0.74
CCc1nn(CC(=O)NC2CCCC(C)C2C)c(=O)c2cc3occc3n12 (configuration not stated)	-0.39	0.78
O=C(Nc1ccccc1Br)c1cnn2c(C(F)F)cc(-c3ccccc3)nc12	-0.38	1.3

The list goes on.
SMILES	CDC25B-CDK2 inh	HIV TAR-Tat
CC(C)NC(=O)CN1C(=O)CC(C)Sc2ccc(S(=O)(=O)N3CCCCC3)cc21 (configuration not stated)	·	2.2
Cn1nc(C(=O)NCCCN2CCOCC2)c2c1-c1ccccc1SC2	-1.6	-1.4
CC(=O)N1CCc2cc(S(=O)(=O)CCC(=O)Nc3cccc(Br)c3)ccc21	·	-2.7
COC(=O)c1cnc(S(=O)CC#N)n1C (configuration not stated)	-0.93	·
COc1ccc(OC)c(NC(=O)CSc2nc(SC)ns2)c1	-1.6	2.2
C[C@@H]1C[C@H]2[C@@H]3CCC4=CC(=O)C=C[C@]4(C)[C@@]3(F)[C@@H](O)C[C@]2(C)[C@H]1C(=O)CO	·	1.9
O=C(Nc1ccc(NC(=O)c2sc3ccccc3c2Cl)cc1)c1ccco1	-1.1	·
O=C(CSc1nc2ccccc2[nH]1)NCCN1CCCC1	-0.77	-1.6
COc1ccc(NS(=O)(=O)c2ccc3c(c2)CC(C)N3C(=O)C2CC2)cc1OC (configuration not stated)	·	1.4
CCO/C(C)=N\OC(=O)c1c(-c2c(Cl)cccc2Cl)noc1C	-0.28	·
CCc1nnc(NC(=O)C2CCC(CNc3c(N4CCCCC4)c(=O)c3=O)CC2)s1 (configuration not stated)	0.13	1.1
COc1ccc(/C(O)=C2\C(=O)C(=O)N(CCN3CCNCC3)C2c2ccc(OC)cc2)cc1 (configuration not stated)	-0.94	0.66
CC1=Nc2ccc3ccccc3c2C1(C)C	-1.5	·
Cc1cc2nc(COC(=O)c3ccccc3Br)cc(=O)n2o1	·	-0.13
O=S(=O)(NCc1ccccn1)c1ccccc1	-1.3	1.5
Cc1cc(C2CCCN2S(=O)(=O)c2ccc(F)cc2)on1 (configuration not stated)	·	-0.44
O=C1OCCC1Sc1nnc(-c2ccc(Cl)cc2)o1 (configuration not stated)	-0.56	1.1
COc1ccc(NC2c3ccccc3C(=O)N2c2ccccn2)c(OC)c1 (configuration not stated)	7.8	0.39
COc1ccc(N(Cc2c(F)cccc2Cl)C2=NC3CS(=O)(=O)CC3S2)cc1 (configuration not stated)	0.47	0.42
CCc1nn(CC(=O)Nc2c(C)cc(C)cc2C)c(=O)c2cc3sccc3n12	0.61	0.58
O=C(CN1C(=O)COc2ccccc2C1=O)c1ccc(F)cc1	-0.87	0.55
CSc1nc2n(n1)C(c1cccc(Cl)c1)C1=C(CC(C)(C)CC1=O)N2 (configuration not stated)	0.43	0.71
CN1Cc2c(N3CCOCC3)nc(SCc3ccccc3)c(C#N)c2CC1(C)C	-0.37	1.3
COc1cc(NS(=O)(=O)c2ccc3c(c2)OCC(C(=O)N2CCCC2)O3)cc(OC)c1 (configuration not stated)	·	0.06
COc1ccc(-c2cc(N)n(S(=O)(=O)c3ccc(C)cc3)n2)c(OC)c1	-0.31	0

For reference, part of the list above:
SMILES	CDC25B-CDK2 inh	HIV TAR-Tat
CC(C)NC(=O)CN1C(=O)CC(C)Sc2ccc(S(=O)(=O)N3CCCCC3)cc21 (configuration not stated)	·	2.2
Cn1nc(C(=O)NCCCN2CCOCC2)c2c1-c1ccccc1SC2	-1.6	-1.4
CC(=O)N1CCc2cc(S(=O)(=O)CCC(=O)Nc3cccc(Br)c3)ccc21	·	-2.7
COC(=O)c1cnc(S(=O)CC#N)n1C (configuration not stated)	-0.93	·
COc1ccc(OC)c(NC(=O)CSc2nc(SC)ns2)c1	-1.6	2.2

More records follow:
SMILES	CDC25B-CDK2 inh	HIV TAR-Tat
COc1ccc(Br)cc1C1N(c2cccc(Cl)c2)C(=O)C2CCCN21 (configuration not stated)	0.23	-0.34
O=C(c1ccc(-n2ccc3ccccc32)s1)N1CCC(C(=O)N2CCc3ccccc3C2)CC1	·	1.6
CC1(C)CC(=O)C2=C(C1)Nc1ccccc1N(CC(=O)NCc1ccccn1)C2c1ccco1 (configuration not stated)	·	-1.3
CS(=O)(=O)N1CCN(Cc2noc3ccccc23)CC1	·	0.81
Cc1ccc(NS(=O)(=O)c2ccc3c(c2)C(C(C)C)C(=O)N3)cc1C (configuration not stated)	·	0.93
COc1cccc(C2c3c(-c4ccccc4O)n[nH]c3C(=O)N2Cc2cccnc2)c1 (configuration not stated)	-0.32	-2
COc1ccccc1N1CCN(S(=O)(=O)c2ccc(-c3cc(C)[nH]n3)s2)CC1	·	0.01
CC(=O)Nc1ccc(S(=O)(=O)[C@H]2CS(=O)(=O)C[C@@H]2NC2CCCC2)cc1	-2	0.43
O=C(c1cnc2sc(N3CCOCC3)nn2c1=O)N1CCN(c2ccccc2F)CC1	·	1.5
CCOC(=O)C(Cc1cc(C)c(CC(C(=O)OCC)C(=O)OCC)cc1C)C(=O)OCC	-3.4	·
Cc1cc(Nc2cccc3c2CCCC3)n2nc(-c3ccco3)nc2n1	·	-1.2
O=C(CN1C(=O)CC(c2ccco2)Sc2ccccc21)Nc1ccc(F)cc1F (configuration not stated)	-2	·
Cc1ccc(O)c(-c2n[nH]c3c2C(c2ccc(C(C)C)cc2)N(CCO)C3=O)c1 (configuration not stated)	-1	-0.34

Assay outcomes from PubChem BioAssay.
